KCNQ2 enhance: potentiators of rat KCNQ2 potassium channel | CHO-K1 KCNQ2, FluxOR thallium flux fluorescence; hits give high values | B-score at 10 µM | O88943 | 310,000 compounds, 0.54% hits;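 active = fluorescence ratio B-score at least 3 SD of library B-scores, with initial fluorescence B-score within 3 SD, cut at about 5.3 in these data; same plate scores as AID 2156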;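 also: B-score of peak minus minimum over baseline fluorescence ratio after K+ and Tl+ stimulus; positive B-score means potentiation of KCNQ2 with more thallium influx and brighter signal; only the inactives scoring about 0 or higher are listed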
Target sequence (O88943 whole entry, looked up): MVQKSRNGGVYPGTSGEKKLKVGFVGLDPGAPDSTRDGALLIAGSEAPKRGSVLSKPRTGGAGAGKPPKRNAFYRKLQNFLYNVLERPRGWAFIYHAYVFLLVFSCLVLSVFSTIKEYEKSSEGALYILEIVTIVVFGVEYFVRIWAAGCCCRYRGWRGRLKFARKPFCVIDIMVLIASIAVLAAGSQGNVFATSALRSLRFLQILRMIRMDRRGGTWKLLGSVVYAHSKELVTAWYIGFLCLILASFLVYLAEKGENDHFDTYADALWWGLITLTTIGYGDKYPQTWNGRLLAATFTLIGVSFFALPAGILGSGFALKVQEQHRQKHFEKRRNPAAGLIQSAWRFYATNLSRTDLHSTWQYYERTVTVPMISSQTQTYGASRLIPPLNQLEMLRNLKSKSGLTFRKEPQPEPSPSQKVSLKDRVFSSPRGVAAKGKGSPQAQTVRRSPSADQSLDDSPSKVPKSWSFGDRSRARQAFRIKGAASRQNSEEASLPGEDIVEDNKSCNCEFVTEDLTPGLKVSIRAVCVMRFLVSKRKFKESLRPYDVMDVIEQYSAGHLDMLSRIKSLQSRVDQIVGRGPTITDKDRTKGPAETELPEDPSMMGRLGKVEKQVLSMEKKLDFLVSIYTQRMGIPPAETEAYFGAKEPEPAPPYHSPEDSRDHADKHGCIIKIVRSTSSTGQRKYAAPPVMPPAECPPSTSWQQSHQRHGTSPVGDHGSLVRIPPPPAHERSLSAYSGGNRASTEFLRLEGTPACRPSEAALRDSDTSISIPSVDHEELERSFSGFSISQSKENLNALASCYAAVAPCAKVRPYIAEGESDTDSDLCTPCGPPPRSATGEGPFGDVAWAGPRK
KCNQ2 enhance baseline: second read-out of KCNQ2 enhance, no call of its own (marks repeat the call); B-score; compound at 10 µM; measured here: initial fluorescence intensity artifact check;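 brightness before thallium and not channel activity; 0 = typical well and far values either way flag optical interference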
The depositor's hits bear a star.

SMILES | KCNQ2 enhance | KCNQ2 enhance baseline
CCCCn1c(N)c(N(CCOC)C(=O)COC(=O)CCOc2ccccc2C)c(=O)[nH]c1=O | 2.4 | -0.67
N/C(=N\OC(=O)c1cnn(-c2ccccc2)c1C(F)(F)F)c1cc(C(F)(F)F)cc(C(F)(F)F)c1 | 0.08 | 0.02
COCC1CCN(C(=O)c2ccc(OC)c(OC3CCN(C(C)C)CC3)c2)CC1 | 0.66 | 0.01
O=S(=O)(c1ccccc1)C1(C2CC(c3ccccc3)=NO2)CC(O)C1 (configuration not stated) | 2.4 | -0.42
Cc1cc(C)nc(Nc2ccc(C)c([N+](=O)[O-])c2)n1 | 0.05 | -0.07
CC(OC(=O)c1ccco1)C(=O)NCc1ccc2c(c1)OCO2 (configuration not stated) | 0.07 | -0.62
O=C(NC(=S)Nc1ccc(N2CCCC2)cc1)c1ccccc1[N+](=O)[O-] | 0.02 | 0.41
CCc1ccc(N2CC(C(=O)Nc3ccccc3F)CC2=O)cc1 (configuration not stated) | 0.25 | -1.4
CSCC(NS(=O)(=O)c1ccc(C)cc1)C(=O)O (configuration not stated) | 0.93 | -0.09
COc1ccc2c(c1OC)C(=O)N(c1nccs1)C2 | 1.9 | 0.97
CCNc1nc(Cl)nc(NCCOc2ccc(C)cc2)n1 | 1.1 | 1.2
CCC(SC1=NCCS1)C(=O)Nc1ccc(S(N)(=O)=O)cc1 (configuration not stated) | 1.8 | -2.3
COc1ccc(CC(=O)N2CCN(c3ccc(C4=NNC(=O)CC4C)cc3)CC2)cc1 (configuration not stated) | 1.9 | -1.9
O=S(=O)(Nc1ccccc1O)c1cccc2cccnc12 | 0.29 | 0
Cc1c(Br)c([N+](=O)[O-])nn1C(C)C(=O)N1CCCc2ccccc21 (configuration not stated) | 0.15 | 0.18

Entries of single compounds as entered above. Order of values: KCNQ2 enhance, KCNQ2 enhance baseline
COc1ccc2c(c1OC)C(=O)N(c1nccs1)C2 across the screens: 1.9, 0.97
O=S(=O)(Nc1ccccc1O)c1cccc2cccnc12 across the screens: 0.29, 0

Additional structures:
SMILES | KCNQ2 enhance | KCNQ2 enhance baseline
c1ccc2c(c1)[nH]c1c(N3CCC4(CC3)OCCO4)ncnc12 | 1.3 | -0.1
CCOC(=O)N1CCN(C(=O)CSCc2nc(-c3ccccc3F)oc2C)CC1 | 1 | 1.8
CSc1ccccc1NC(=O)CN(C)CC(=O)Nc1ccccc1C(F)(F)F | 0.69 | -1.5
O=C(N/N=C/c1ccc([N+](=O)[O-])o1)c1ccc(O)cc1 | 0.09 | 0.09
Cc1c(Nc2cc(N3CCCC(C)C3)c3nonc3c2[N+](=O)[O-])c(=O)n(-c2ccccc2)n1C (configuration not stated) | 1.6 | 1.2
COc1ccc(N2Cc3ccc(OC)c(OC)c3C2=O)cc1 | 1.5 | -0.32
O=C(COC(=O)c1cccnc1Cl)NCc1ccco1 | 1.6 | -0.41
COC(=O)c1ccc(N=Cc2c(C(F)(F)F)[nH]n(C)c2=O)cc1 | 0.95 | -0.26
O=C(Cc1c(Cl)cccc1Cl)Nc1cccnc1 | 0.03 | 0.47
CCN(CC(=O)NCc1cccs1)C(=O)c1ccc(S(=O)(=O)N(C)C)cc1 | 2 | -2.8
COC(=O)c1cc(C#N)c(Oc2cccc(C)c2C)nc1C | 0.03 | 0.07
NS(=O)(=O)c1ccc(CCNC(=O)CSc2ccsc2[N+](=O)[O-])cc1 | 0.03 | 0.18
CC(OC(=O)CNC(=O)c1ccc2ccccc2c1)C(=O)NC1CCCCC1C (configuration not stated) | 0.08 | -0.01
COCCN1C(=O)N(c2cccc(OC)c2)C(=O)C1CC(=O)Nc1ccc(OC)cc1 (configuration not stated) | 0.76 | 1.5
O=C(NC1CCCCCC1)c1ccc(CS(=O)(=O)Cc2ccccc2F)o1 | 0.14 | -0.71
Cc1ccccc1N(CC(=O)O)S(C)(=O)=O | 1.4 | -1
COc1cc(OC)c(OC)cc1CN1CCN(c2ccccc2OC)CC1 | 0.76 | -1.5
CCCCOCCCNC(=O)CCCOc1ccccc1 | 1.2 | -0.03
COc1cc(CN2CCNC(=O)C2CC(=O)N2CCCO2)cc(OC)c1 (configuration not stated) | 0.75 | 2.5
Cc1csc(NC(=O)c2cccnc2)n1 | 1.8 | 0.1
COCc1nnc(NC(=O)CC(C)c2ccccc2)s1 (configuration not stated) | 1.6 | 0.01
OCCNc1ncnc2c1cnn2Cc1ccccc1 | 1.8 | -0.17
CCC(C)NC(=O)CSc1ncccc1C(=O)O (configuration not stated) | 1.1 | -1.3
CCC(=O)c1cc(F)ccc1OCC(=O)N1CCN(c2ccc(F)cc2)CC1 | 1.7 | 0.01
Cc1nc2cc3nc(C(F)(F)F)[nH]c3cc2[nH]1 | 0.1 | 0.69
Cn1cnc(C(F)(F)F)c1-c1ccc([N+](=O)[O-])cc1 | 0.46 | -0.01
CCN(CC(=O)Nc1ccc(NC(C)=O)cc1)C(=O)/C=C/c1ccccc1 | 1.1 | 0.17
Cc1ccnc(NC(=O)/C=C/c2cccs2)c1 | 0.98 | -0.73
O=C(NCc1ccccc1)C1CCC(=O)N(CCCN2CCCC2=O)C1 (configuration not stated) | 0.51 | 1.4
CCN(C(=O)CSc1nc2ccc([N+](=O)[O-])cc2s1)C1CCS(=O)(=O)C1 (configuration not stated) | 0.64 | -1.3
Cc1c(C(=O)N2CCCCC2)c(S(=O)(=O)N2CCN(c3ccc(Cl)cc3)CC2)c(C)n1C | 0.34 | -0.17
O=C(NC1CCCCC1)c1cc(S(=O)(=O)N2CCOCC2)c(Cl)cc1Cl | 0.05 | 2.1
CS(=O)(=O)N1CCN(c2ccc(NC(=O)COc3ccccc3[N+](=O)[O-])cc2)CC1 | 0.21 | 0.4
C=CCNc1nc(Cl)nc(Nc2cc(Cl)ccc2OC)n1 | 0.51 | -0.05
Cc1ccc(C(=O)CCNc2ccc(F)c(Cl)c2)o1 | 0.78 | 0.06
CCC1CCCCN1CCCNC(=O)C1CCN(S(=O)(=O)N2CCC3(CC2)OCCO3)CC1 (configuration not stated) | 0.35 | 1.2
COc1cc(C(Nc2ccc(S(=O)(=O)NCC3CCCO3)cc2)C(=O)NC(C)(C)C)cc(OC)c1OC (configuration not stated) | 0.87 | -1.4
O=S(=O)(NC1CC1)c1ccc(S(=O)(=O)N2CCC3(CC2)OCCO3)cc1 | 0.98 | 0.08
Cc1nn(C(=O)c2ccco2)c(C)c1CN1C(=O)c2ccccc2C1=O | 1.7 | 0.38
CCN(c1ccccc1)S(=O)(=O)c1ccc(C(=O)N(C)CCc2ccc(OC)c(OC)c2)cc1 | 0.52 | 0.68
Cc1cc(-c2cc(-c3ccccc3)on2)nc(NCC2CC2)n1 | 0.23 | 1
CCOC(=O)C1(Cc2ccccc2C)CCCN(C(=O)c2ccc(OC)o2)C1 (configuration not stated) | 1.8 | -1.1
Oc1ccc(/C=N/Nc2cc(N3CCOCC3)nc(N3CCOCC3)n2)cc1 | 0.16 | 0.95
COc1ccc2cc(CCNC(=O)C(C)C)c(=O)[nH]c2c1 | 0.3 | 1.8
Cn1cc(CN2CCC(n3nccc3NC(=O)c3ccccc3Cl)CC2)c2ccccc21 | 1.3 | -2

Ordered by heavy-atom count (descending): some entries from above.
SMILES | KCNQ2 enhance | KCNQ2 enhance baseline
CCC1CCCCN1CCCNC(=O)C1CCN(S(=O)(=O)N2CCC3(CC2)OCCO3)CC1 (configuration not stated) | 0.35 | 1.2
Oc1ccc(/C=N/Nc2cc(N3CCOCC3)nc(N3CCOCC3)n2)cc1 | 0.16 | 0.95
Cc1ccc(C(=O)CCNc2ccc(F)c(Cl)c2)o1 | 0.78 | 0.06

The listing continues:
SMILES | KCNQ2 enhance | KCNQ2 enhance baseline
CCCOc1ccc2oc(=O)c3c(c2c1)CCCN3C(=O)CN1CCN(C(=O)c2ccco2)CC1 | 0.8 | 0
Cc1ccccc1OCCNC(=O)CSc1ccc(C(F)(F)F)cc1[N+](=O)[O-] | 0.16 | 1.6
COCCn1c(SCC(=O)Nc2cccc(OC)c2)nnc1-c1ccccc1 | 2 | 0.27
O=C(CNS(=O)(=O)c1cccc(Cl)c1)Nc1ccc(-c2nc3ccccc3s2)cc1 | 2.1 | -1.6
COc1ccc(NC(=O)/C=C/C(=O)O)c([N+](=O)[O-])c1 | 0.93 | 0.44
CCc1ccc(C(C)NC(=O)C2CCCC2)cc1 (configuration not stated) | 12* | -1.2*
COc1ccc2[nH]c3c(=O)n4c(nc3c2c1)SCC4 | 0.29 | -0.47
COc1ccc(N2CCN(c3ccc(S(=O)(=O)N(C(C)C)C(C)C)cn3)CC2)cc1 | 0.7 | 1.9
Nc1nncn1C(=O)c1c(Cl)cccc1Cl | 0.48 | 0.19
C=C(C)CN(CC)C(=O)c1ccc(OC2CCN(S(=O)(=O)N(C)C)CC2)cc1 | 1.3 | -1
N#Cc1ccc(C(c2nnnn2Cc2ccccc2)N2CCCC2)cc1 (configuration not stated) | 1.6 | -0.38
COC(=O)c1c(N)n(CCCN2CCOCC2)c2nc3ccccc3nc12 | 1.5 | -2.6
O=C(Cc1ccc([N+](=O)[O-])cc1)N/N=C/c1cccnc1 | 0.36 | 0.86
C=C(C)C(=O)N1CC2(CC(c3cccc(NC(=O)CCCCC)c3)=NO2)C[C@H]1C(N)=O (some centres not stated) | 0.57 | -1.5
CCNC(=S)Nc1ccc2c(c1)oc1ccccc12 | 1.9 | -0.31
O=C(Nc1cccn(Cc2ccccc2)c1=O)NC1CCCCC1 | 0.53 | -0.16
Cc1cnn(C(=O)c2cc(-c3ccccc3)nc3ccccc23)c1 | 0.04 | -1.2
COc1cccc(C(=O)Nc2ccc(NC(C)=O)cn2)c1 | 1.1 | 1.9
CSc1nc(-c2ccccc2)nc(SC)c1C(C)=O | 0.01 | 0.71
Cc1nc2ncnn2c(N2CCN(C(=O)c3cccc(F)c3)CC2)c1C | 0.82 | 1.8
COc1ccc(N(C(=O)c2ccc(S(=O)(=O)N3CCOCC3)cc2)C2C=CS(=O)(=O)C2)cc1 (configuration not stated) | 0.21 | 0.66
COc1cc(OC)cc(C(=O)NC(=S)N2CCN(c3ccc(C(F)(F)F)cc3[N+](=O)[O-])CC2)c1 | 0.02 | -0.3
COC(=O)COc1ccc(S(=O)(=O)NCc2ccccn2)cc1 | 1.1 | -0.25
CS(=O)(=O)Nc1ccc(C(=O)NCc2ccc3c(c2)OCO3)cc1 | 0.1 | 0.54
NS(=O)(=O)c1ccc(NC(=O)Cc2cccs2)cc1 | 0.52 | -0.5
CCCCN(C(=O)CCC(=O)Nc1cc(C)on1)C(C(=O)NC1CCCC1)c1ccc(OC)cc1 (configuration not stated) | 0.95 | -0.23
CCn1c(CCCOc2ccc(Cl)cc2Cl)n[nH]c1=S | 0.05 | 0.45
CCc1nnc(NC(=O)COc2ccc([N+](=O)[O-])cc2)s1 | 1.2 | -1.3
O=C(O)/C=C/c1cnc2ccccc2c1 | 0.08 | -1
CN1C(=O)/C(=N\OC(=O)c2cccc3ccccc23)c2ccccc21 | 5.4* | 0.41*

An excerpt of these results, as labelled records:
CN1C(=O)/C(=N\OC(=O)c2cccc3ccccc23)c2ccccc21
- KCNQ2 enhance = 5.4*
- KCNQ2 enhance baseline = 0.41*

COC(=O)COc1ccc(S(=O)(=O)NCc2ccccn2)cc1
- KCNQ2 enhance = 1.1
- KCNQ2 enhance baseline = -0.25

NS(=O)(=O)c1ccc(NC(=O)Cc2cccs2)cc1
- KCNQ2 enhance = 0.52
- KCNQ2 enhance baseline = -0.5

COc1cccc(C(=O)Nc2ccc(NC(C)=O)cn2)c1
- KCNQ2 enhance = 1.1
- KCNQ2 enhance baseline = 1.9

Next entries follow.
SMILES | KCNQ2 enhance | KCNQ2 enhance baseline
Cc1oc(-c2ccccc2F)nc1CN1CCC(C(=O)NCc2cccnc2)CC1 | 0.35 | 0.03
COc1cccc2c1OCC(C(=O)NCc1ccc(Cl)cc1Cl)=C2 | 0.09 | -0.39
COC(=O)C1=C(C(=O)OC)[C@@H]2N(C)c3ccc(OC)cc3[C@@]23C[C@@H](C(=O)OC)N(C(=O)NC2CCCCC2)C3=N1 | 0.22 | -1.2
CCCN1CCN(CCCNC(=O)Cn2nc(-c3ccc(C)cc3)ccc2=O)CC1 | 0.82 | 0.26
Cc1cccn2c(=O)c(C=O)c(N3CCCCC3)nc12 | 1.4 | 1.1
O=S(=O)(NCCc1ccccn1)c1cccs1 | 0.69 | -0.01
COc1cccc(C2N(c3ccccc3)CCN2c2ccccc2)c1OC | 0.37 | -0.66
O=S(Cc1ccc(Cl)cc1)CC(O)COCc1ccc(Cl)cc1 (configuration not stated) | 1.3 | -0.66
COc1ccc(C(C)=O)c(Oc2cc(NN3CCCCC3)c([N+](=O)[O-])cc2[N+](=O)[O-])c1 | 1.2 | -0.99
CCN1CCN(CCOCCOc2ccccc2-c2ccccc2)CC1 | 1.1 | 1.3
COc1ccc(Cc2noc(-c3ccc([N+](=O)[O-])cc3)n2)cc1OC | 0.48 | 0.01
CCOc1ccc(NC(=O)C2CCCN2S(=O)(=O)c2ccc3c(c2)C(C)(C)C(=O)N3C)cc1 (configuration not stated) | 2.2 | -1.4
Cc1nn(CCCC(=O)Nc2cnn(Cc3ccc(F)cc3)c2)c(C)c1[N+](=O)[O-] | 0.02 | 0.72
CN(CC(=O)Nc1ccc(F)cc1)C(=O)C1CC(=O)N(Cc2ccccc2)C1 (configuration not stated) | 1.2 | -1.6
COC(=O)c1sc(N2C(=O)C(=O)/C(=C(/O)c3ccc(C)cc3)C2c2ccco2)nc1C (configuration not stated) | 2.3 | -0.76
CC1CCN(CCCCOc2ccc(C(C)(C)C)cc2)CC1 | 0.36 | -1.7
CCOc1cc(N2CCOCC2)c(OCC)cc1NC(=O)COC(=O)c1ccccc1C | 0.04 | -0.48

Source: PubChem (Johns Hopkins Ion Channel Center)

This is a subset; rates above refer to the full screens.
